# N370S GC = inhibits or activates N370S mutant glucocerebrosidase; Potency, µM (titrated, usually from 59.4 µM), for the others: at the top dose activity change, negative = inhibition, hits mostly inhibitors; P04062; 330,000 compounds, 0.092% hits; N370S GC spleen homogenate, 4MU-glucoside fluorescence;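 note: 0% = full enzyme activity and -100% = no enzyme basal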
# TDP1 block = TDP1 (human) enzyme inhibition; Potency, µM (top dose mostly 130 µM), for inactives: at the highest dose activity change, negative = inhibition, hits mostly inhibitors; 350,000 compounds, 0.28% hits; AID 485290; recombinant TDP1, AlphaScreen DNA substrate cleavage; Q9NUW8; note: nearly all actives have a fitted effect of over 40% in size
# Target sequence (Q9NUW8 whole entry, looked up): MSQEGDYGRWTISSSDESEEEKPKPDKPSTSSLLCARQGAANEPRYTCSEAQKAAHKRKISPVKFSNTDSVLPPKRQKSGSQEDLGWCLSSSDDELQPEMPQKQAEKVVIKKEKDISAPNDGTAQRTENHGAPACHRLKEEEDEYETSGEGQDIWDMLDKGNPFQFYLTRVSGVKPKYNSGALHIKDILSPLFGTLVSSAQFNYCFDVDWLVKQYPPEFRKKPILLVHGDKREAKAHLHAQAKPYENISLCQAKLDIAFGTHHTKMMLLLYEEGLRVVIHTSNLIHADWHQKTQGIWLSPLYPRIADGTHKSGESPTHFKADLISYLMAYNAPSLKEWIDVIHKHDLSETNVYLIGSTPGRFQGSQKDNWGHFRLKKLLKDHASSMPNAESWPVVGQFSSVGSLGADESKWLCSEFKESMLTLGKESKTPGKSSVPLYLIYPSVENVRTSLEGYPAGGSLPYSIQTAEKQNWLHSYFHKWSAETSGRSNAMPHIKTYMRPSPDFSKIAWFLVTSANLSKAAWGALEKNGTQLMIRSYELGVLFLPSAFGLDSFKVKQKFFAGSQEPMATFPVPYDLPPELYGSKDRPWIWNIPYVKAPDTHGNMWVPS
#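 Enzyme-compound mixtures sat 15 min at room temperature, followed by a 5 min reaction with 15 nM final substrate and 10 min with AlphaScreen beads. Recombinant human Tdp1 was used at 1 nM final.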
# The depositor's hits bear a star; nt = not tested or not shown; & = joins results of further samples; [ ] = another dose, or the depositor's remark. Calls come from the whole dose curve; as a rule, active = well fitted curve in the direction sought with a large enough effect; inconclusive = small, poorly fitted or top-dose-only effect, or another doubt; inactive = no such curve, though single readings can be large; an effect the other way counts as inactive or inconclusive. Unless noted, % is set by controls: 0 for no effect and ±100 for the full control effect; potency is the fitted concentration of half-maximal effect.
compound,N370S GC,TDP1 block
CC(=O)N1CCN(C(=O)CCN(c2ccccc2)S(=O)(=O)c2ccc(C)cc2)CC1,-2%,0%
O=C(CCCC(=O)NCC1CCCO1)NCC1CCCO1 (centres undefined),-7%,0%
CC/C=C/C(=O)N1CC2(CC(c3cccc(NC(=O)COc4ccc(Cl)cc4)c3)=NO2)C[C@H]1C(N)=O (some centres undefined),6%,-1%
C[C@H](NC(=O)c1cc2c(cn1)[nH]c1ccccc12)C(=O)O,-1%,nt
COC(=O)c1sccc1NC(=O)c1cccc(OC)c1,5%,2%
CCN(CC)C(=O)C1CCCN(c2ncnc3c2cnn3-c2cccc(C)c2)C1 (centres undefined),0%,0%
Cc1nn(C)cc1/C=N\NC(=O)Cc1ccc([N+](=O)[O-])cc1,9%,-2%
Cc1cccc(NC(=O)CSc2nnc(NC(=O)C3CC3)s2)c1C,1%,0%

# Further entries follow.
compound,N370S GC,TDP1 block
Cc1cc(C(=O)Nn2cnnc2)cs1,-2%,1%
COc1ccc(-c2cc(C(=O)NCCCn3ccnc3)no2)cc1,-17%,3%
Cc1cc(C(=O)CN2C(=O)NC(CC(C)C)C2=O)c(C)n1C1CC1 (centres undefined),nt,1%
O=C(Nc1cc(=O)[nH]c2nc(-c3ccccc3)nn12)c1ccc(Cl)cc1,5%,4%
O=C(CN1CCN(C(=O)c2cccc(S(=O)(=O)N3CCCC3)c2)CC1)Nc1ccccc1Cl,nt,-1%[56.1 µM]
O=C(CCc1ccccc1)NNC(=O)C1CCCCC1,12%,4%
CN(C)c1nc(NCc2ccccc2)nc(N/N=C/c2ccc3c(c2)OCO3)n1,-1%,3%
Nc1cc(=O)[nH]c(N2CCN(c3ccccc3)CC2)n1,5%,-3%

# (continued)
compound,N370S GC,TDP1 block
CCc1cccc(OCC(=O)Nc2cc(S(=O)(=O)N3CCOCC3)ccc2N2CCCC2)c1,7%,4%
CN(C(=O)c1ccccc1F)C(c1ccccc1)c1ccccc1,-2%,4%
COC(=O)c1ccc(S(=O)(=O)NCc2ccccn2)n1C,-3%,3%
O=C(CSc1nnnn1Cc1ccccc1)NCC(=O)c1ccccc1,5%,5%
O=C(CSc1ccncc1)Nc1ccc2ccccc2c1,3%,-2%
CCCC(=O)Nc1ccc(OCC(=O)OC)cc1,-7%,0%
COc1ccc(-c2nc(C#N)c(N3CCCCCC3)o2)cc1,12%,-6%
CC1CCCCN1CC(=O)c1c(N)n(Cc2ccccc2)c(=O)n(C)c1=O (centres undefined),5%,-3%

# Among those listed so far, these have a halogen.
compound,N370S GC,TDP1 block
CC/C=C/C(=O)N1CC2(CC(c3cccc(NC(=O)COc4ccc(Cl)cc4)c3)=NO2)C[C@H]1C(N)=O (some centres undefined),6%,-1%
O=C(Nc1cc(=O)[nH]c2nc(-c3ccccc3)nn12)c1ccc(Cl)cc1,5%,4%
O=C(CN1CCN(C(=O)c2cccc(S(=O)(=O)N3CCCC3)c2)CC1)Nc1ccccc1Cl,nt,-1%[56.1 µM]
CN(C(=O)c1ccccc1F)C(c1ccccc1)c1ccccc1,-2%,4%

# (cont.)
compound,N370S GC,TDP1 block
COc1cc(-c2nnc(SCc3cc(=O)oc4cc(C)ccc34)o2)cc(OC)c1OC,14%,4%
CCOC(=O)CNC(=O)c1cc2c(=O)n3cccc(C)c3nc2s1,nt,-3%
S=C(Nc1ccc(Cl)cc1)Nc1ccc2cn[nH]c2c1,-10%,4%
COc1cccc(NC(=O)C(=O)NCc2ccncc2)c1,12%,0%
CCOc1ccc(Nc2nc(N)c([N+](=O)[O-])c(N3CCOCC3)n2)cc1,-10%,nt
Cc1ccc(C)c(NC(=S)N2CCCCC2CO)c1 (centres undefined),5%,1%
CN(Cc1ccc(Cl)cc1)C(=O)c1ccc2ccccc2n1,2%,nt
Cc1ccc(S(=O)(=O)N2CCC(C(=O)OCC(=O)N3CCCC3=O)CC2)cc1C,-11%,0%

# Next part.
compound,N370S GC,TDP1 block
CCS(=O)(=O)N1CCC(C(=O)Nc2ccccc2OC)CC1,0%,nt
Clc1ccc(CSc2ncn[nH]2)cc1,4%,2%
CC(=O)Nc1c(O)nc(SCC(=O)Nc2sc3c(c2C#N)CCCCCC3)[nH]c1=O,-13%,4%
O=C(CCN1CCN(c2ccccc2)CC1)N/N=C/c1ccc([N+](=O)[O-])o1,-12%,2%
O=C(C1CC(=O)N(c2ccc3c(c2)OCCO3)C1)N1CCN(c2ccccc2)CC1 (centres undefined),1%,-9%
CC(=O)c1cccc(NC(=O)C2CCCCC2)c1,0%[2.35 µM],-1%
CCOC(=O)c1c(S(=O)(=O)NCCc2ccc(OC)c(OC)c2)c(C)n(C)c1C,-3%,1%
O=C(COc1ccc(C2SCCS2)cc1)NNC(=O)C(Cl)Cl,0%,nt

# Next part:
compound,N370S GC,TDP1 block
Cc1cccc(NC(=O)CN2C(=O)N/C(=C/c3cc(C)n(C(C)C)c3C)C2=O)c1,8%,8%
COc1ccccc1C(=O)NCCC(=O)NC1=NCCS1,nt,1%
COc1ccc(Cl)cc1NC(=O)CN(C)CC(=O)NC(C)c1ccccc1 (centres undefined),17%,3%
O=C(c1cccs1)N1CCN(c2nc3c(F)cc(F)cc3s2)CC1,2%,0%
O=[N+]([O-])c1ccccc1CN1CCN(c2ncccn2)CC1,-9%,nt
Cc1ccccc1CC(=O)N1CCCC(CCC(=O)N2CCN(c3ccccn3)CC2)C1 (centres undefined),27%,0%
CNc1nc2[nH]c(=O)c3c(c2s1)OC(N)=C(C#N)C3c1ccccc1 (centres undefined),-8%,-1%
CCCCSc1nnc2[nH]c(=O)cc(N)n12,nt,6%

# Going on with the list:
compound,N370S GC,TDP1 block
CCOC(=O)NC(=O)CSc1nnnn1-c1ccccc1,-1%,-2%
COC(=O)CNC(c1ccccc1)c1cc(Br)ccc1NC(=O)CNC(=O)OCc1ccccc1 (centres undefined),-8%,5%
Cc1ccc(-c2csc3ncn(C(C)C(=O)O)c(=O)c23)cc1 (centres undefined),-2%,-3%
COc1cccc(CC2(CO)CCN(Cc3ccc(NC(C)=O)cc3)CC2)c1,-3%,1%
Cc1nn(Cc2ccccc2Cl)c(C)c1C(=O)NCC(c1cccs1)N1CCOCC1 (centres undefined),-16%,0%
Cc1ccc(S(=O)(=O)N(Cc2cc3ccccc3[nH]c2=O)CC2CCCO2)cc1 (centres undefined),4%,nt
Cc1ccc(/C=C/C(=O)OCC(=O)N2CC(=O)Nc3ccccc32)o1,-3%,-2%
CC(C)(C)c1cc(CN2CCC(O)CC2)cc(C(C)(C)C)c1O,3%,-9%

# Other entries:
compound,N370S GC,TDP1 block
Brc1ccc(OCCCOc2cccc3cccnc23)cc1,-6%,nt
CCOc1ccc(C(=O)O/N=C(\N)c2ccccn2)cc1,-6%,nt
CN1CCN(c2cc(N3CCc4ccccc4C3)c(F)cc2[N+](=O)[O-])CC1,-24%,7%
CCOC(=O)C1=C(CN2CCCCC2)NC(=O)NC1c1cc(C)ccc1C (centres undefined),-14%,-3%&6%
Cc1ccc(C)c(NC(=O)C2CCN(C(=O)c3cccs3)CC2)c1,6%,6%
COC(=O)c1ccc(C(=S)N2CCOCC2)cc1,21%,-7%
COc1ccccc1NC(=O)Cc1noc(CSc2cc(C)c3ccccc3n2)n1,17%,5%
COc1ccc(CN(C(=O)c2cnccn2)C(C(=O)NC(C)(C)C)c2cc(OC)c(OC)c(OC)c2)cc1 (centres undefined),-1%,4%[56.1 µM]

# (next part)
compound,N370S GC,TDP1 block
CCn1c(SCC(=O)NCc2ccccc2)nc2c(c1=O)SC(C)C2 (centres undefined),1%,-1%
CC1(C)CN(c2ccccc2)N(C(=O)c2ccc(C#N)cc2)C1=O,11%,-10%
COCCn1cnnc1SCC(=O)Nc1cc(OC)c([N+](=O)[O-])cc1C,1%,5%
COc1ccc(Cl)cc1NC(=O)Nc1c[nH]c(=O)[nH]c1=O,nt,5%
COc1cc(NC(=O)c2ccc(Br)o2)c(C(=O)O)cc1OC,0%,7%
CN(c1ccccc1)c1ncnc2c1cnn2C,nt,3%
O=C(CSc1nnc(-c2ccc(Cl)s2)o1)N1CCCc2ccccc21,11%,4%
Nc1c(C=C2C=CC(=O)C=C2)c(=O)nc2snc(SCc3ccccc3)n12,-2%,2%

# (listing goes on)
compound,N370S GC,TDP1 block
CCCCN(CC)CCCNC(=O)Cn1nc(Cc2ccncc2)c2ccccc2c1=O,-3%,4%
Cc1ccc(S(=O)(=O)NNC(=O)Nc2ccc(Cl)c(Cl)c2)cc1,-19%,7%
O=C(CCN1C(=O)C2C3C=CC(C3)C2C1=O)N1CC(=O)N(CCc2ccccc2)C(=O)C1 (centres undefined),5%,5%
CN1CCN(C(=O)c2cc(S(=O)(=O)Nc3ccccc3F)c(Cl)cc2Cl)CC1,3%,3%
Cc1cc(-n2c(C)cc(C(=O)CSc3ncnc4ccccc34)c2C)no1,4%,9%
NNC(=O)CCN1CCN(C(c2ccccc2)c2ccccc2)CC1,-9%,5%
O=S(=O)(Nc1cccc(CO)c1)c1cccs1,0%,6%
CCOC(=O)c1ccc(NC(=O)CCc2nc(-c3cccc(C)c3)no2)cc1,10%,0%

# (listing goes on)
compound,N370S GC,TDP1 block
COc1ccc2c(c1)O[C@H](c1ccc3c(c1)OCO3)[C@@H](O)C2=O,0%&-11%,3%&-8%
CC(C)N(C(=O)COC(=O)c1cncc(Br)c1)C(C)C,-18%,-2%
CCC(C)c1ccc(S(=O)(=O)N2CCN(S(=O)(=O)c3ccc(NC(C)=O)cc3)CC2)cc1 (centres undefined),-10%,-19%
C#CCN1C(=O)C2(OCCO2)c2ccccc21,0%,2%
CCc1ccc(NC(=O)CN(c2ccc(OC)cc2)S(=O)(=O)c2c(C)[nH]c(=O)[nH]c2=O)cc1,3.2µM*,3%&-1%
CC(C)C(OC(=O)CN1C(=O)COc2ccccc21)C(=O)NC1CCCC1 (centres undefined),-2%,0%
O=C(CSc1nnc(NC(=O)c2ccc(F)cc2)s1)NC1CCCC1,-1%,11%
COc1cc(C(=O)N2CCN(Cc3ccc4c(c3)OCO4)CC2)cc(OC)c1OC,1%,5%

# Next structures:
compound,N370S GC,TDP1 block
Cc1cc(NC(=O)c2cccc(S(=O)(=O)N3CC(c4ccccc4)CC3=O)c2)no1 (centres undefined),-10%,8%
O=C1CC(=O)N2N=C(c3ccc([N+](=O)[O-])cc3)SC2=N1,-2%,3%
COc1ccccc1/C=C/C(=O)OCC(=O)Nc1c(F)cccc1F,-5%,3%
Cc1cc(NC(=O)CSc2ncnc3c2cnn3-c2cccc(Cl)c2)no1,5%,-7%
COc1ccc(N2CCN(C(=O)NC34CC5CC(CC(C5)C3)C4)CC2)cc1,13%,5%
Cc1ccc(C(=O)OC(C(=O)O)C(OC(=O)c2ccc(C)cc2)C(=O)O)cc1 (centres undefined),nt,1%[56.1 µM]
CCOC(=O)N1CCN(C(=S)NC(=O)c2ccc(Br)cc2)CC1,2%,5%
CCc1ccc(NC(=S)Nn2cnnc2)cc1,7%,3%

# New compounds follow.
compound,N370S GC,TDP1 block
COc1ccc(C(=O)OCc2c(C)noc2C)cc1,-4%,0%
O=C(Nc1ccc(F)cc1)N1CCN(c2ccc3nnc(-c4ccc(F)cc4)n3n2)CC1,7%,3%&6%
N=c1c(C(=O)NCc2ccco2)cc2c(=O)n3ccccc3nc2n1Cc1ccccc1,-9%,10%
O=C(NNC(=S)NC(=O)c1ccccc1)c1ccc([N+](=O)[O-])cc1,-1%,nt
COc1cccc(/C=N/NC(=S)Nc2cccc(C(=O)O)c2)c1O,-10%,6%
Cc1ccc(CNC(=O)CCSCc2ccc(C)cc2)cc1,-21%,nt
O=[N+]([O-])c1sccc1CS(=O)(=O)c1ccccc1,-17%,4%
CN(C)c1nc(Oc2ccc(/C=N/O)cc2)nc(N(C)C)n1,5%,0%

# (cont.)
compound,N370S GC,TDP1 block
Cc1oc(-c2cccc(Cl)c2)nc1CS(=O)(=O)CC(=O)NC1CCCC1,-9%,-2%
COc1ccc(CSc2nnc(N)s2)cc1F,8%,1%
CSc1ccc(Cl)c(C(=O)Nc2ccc(OCC(N)=O)cc2)c1,-7%,3%
O=S(=O)(Nc1ccc(Cl)c(Cl)c1)N1CCOCC1,-4%,6%
Cc1ccccc1-n1c(C)nnc1SCC(=O)N1CC(=O)Nc2ccccc21,5%,2%
O=C(NCc1cccnc1)c1cccc(S(=O)(=O)N2CCCC2)c1,-1%,5%
O=C(Cn1nnc2ccccc21)c1ccc([N+](=O)[O-])cc1,-16%,1%
Cc1cnc(NC(=O)Nc2ccc(Cl)cc2)s1,12%,8%

# Further results follow.
compound,N370S GC,TDP1 block
COc1cc2cc(CN(Cc3cccnc3)C(=O)Nc3ccccc3)c(=O)[nH]c2cc1OC,-7%,0%
CC(=O)N1CC=C2C(C#N)=C(N)C(C#N)(C#N)C(C)C2C1 (centres undefined),-1%,0%
COC(=O)c1sc(NC(=O)Cc2cccs2)nc1C,0%,1%
O=C(COC(=O)Cc1c(F)cccc1Cl)NC(=O)c1ccccc1,-8%,5%
C=CCOc1ccc(CNc2nccs2)cc1OCC,-3%,7%
C=CCn1c(C)nnc1SCC(=O)Nc1nccs1,-1%,5%
Clc1ccccc1CN(Cc1ccco1)Cc1nnnn1C1CCCC1,21%,-14%
CCOCC(=O)Nc1c(C(=O)Nc2ccccc2OC)oc2ccccc12,-2%,8%
CCOC(=O)C1(Cc2ccc(OC)cc2)CCN(C(=O)Cc2cccnc2)CC1,-2%,nt
O=C(Nc1cc([N+](=O)[O-])ccc1O)c1cccc(NC(=O)c2ccco2)c1,-6%,5%

# A portion of the library; most or all hits stand in other tables.
